Source: PubChem (several laboratories)
B2AR ag: agonists of human beta-2 adrenergic receptor inducing internalization. P07550. Am2.2-beta2AR cells, FAP receptor internalization, flow cytometry; reference of the scale not given here. response, % (concentration not given with the values). 340,000 compounds, 0.43% hits. AID 504454;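 active means response above a set limit, near 3 SD of response in nonfluorescent compounds, cut at about 42% in these data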;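 further: stock transfer was 100 nL into about 11 µL; a reference agonist was the positive control; negative values mostly stem from fluorescent compounds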
Target sequence (P07550 whole entry, looked up): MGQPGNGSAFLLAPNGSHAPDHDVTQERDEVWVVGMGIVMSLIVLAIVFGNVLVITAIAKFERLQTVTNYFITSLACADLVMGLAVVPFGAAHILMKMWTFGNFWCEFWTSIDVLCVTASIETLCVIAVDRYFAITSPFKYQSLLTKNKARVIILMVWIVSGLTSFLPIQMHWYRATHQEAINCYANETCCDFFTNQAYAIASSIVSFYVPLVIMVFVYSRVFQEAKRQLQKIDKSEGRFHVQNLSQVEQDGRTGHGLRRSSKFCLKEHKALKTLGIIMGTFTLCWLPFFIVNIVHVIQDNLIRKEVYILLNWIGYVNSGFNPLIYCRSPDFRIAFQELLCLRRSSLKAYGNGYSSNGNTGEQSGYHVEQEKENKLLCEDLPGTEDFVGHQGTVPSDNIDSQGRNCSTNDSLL
ALR inh: inhibitors of human sulfhydryl oxidase ALR; inhibition, % (concentration not given with the values); 290,000 compounds, 3.8% hits; purified ALR, DTT oxidation, H2O2 HRP-luminol luminescence; P55789;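 active means mean and each replicate at 75% or more; inconclusive means only one of the two met; inactive means neither met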;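 further: stock transfer was 7.5 nL into about 7.5 µL; 0% = neutral wells and 100% = wells with inactivated enzyme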
Target sequence (P55789 whole entry, looked up): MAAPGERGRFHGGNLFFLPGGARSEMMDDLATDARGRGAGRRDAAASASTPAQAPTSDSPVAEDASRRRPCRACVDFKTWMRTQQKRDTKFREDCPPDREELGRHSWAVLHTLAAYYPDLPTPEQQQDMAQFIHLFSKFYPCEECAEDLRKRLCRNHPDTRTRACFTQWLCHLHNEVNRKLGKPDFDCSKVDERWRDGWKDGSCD
Vif A3G: HIV-1 Vif–A3G interaction blockers – biochemical, TR-FRET, GST-Vif 1-94, biotin-A3G peptide, dose response retest, primary screen (AID 1117319) | 260,000 compounds, 0.57% hits | TR-FRET GST-Vif / biotin-A3G peptide binding; higher % means a stronger effect; test concentration not given here; strong numbers were not always called active | inhibition, %; hits with a dose series show IC50 in µM;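 active means above the screen mean plus three standard deviations and confirmed in dose response; inconclusive means results disagree or hit not tested in dose response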;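 further: Vif residues 1-94 fused to GST binding biotinylated APOBEC3G peptide 110-148; 0% = full assay without inhibitor and 100% = GST in place of GST-Vif; retest series ran down from 100 µM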
RanGTP-Impb inh: inhibitors of RanGTP-importin-beta interaction, primary screen, biochemical, FRET, CFP-Ran, YFP-importin-beta, homogeneous; cell-free CFP-Ran/YFP-importin-beta FRET ratio; inhibition, % (concentration not given with the values); 300,000 compounds, 1.1% hits; AID 2216;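 active means most replicates above 15%; inconclusive means exactly half above 15%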;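 further: 0% = DMSO wells and 100% = Ran loaded with GDP instead of GTP; wells of about 40 µL received 100 nL stock; the first replicate is given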
HNF4A DNA FP: change in binding of human HNF4 alpha to DNA | P41235 | HNF4a-FITC DNA binding, fluorescence polarization, 1 h | activity change, % at 10 µM | 360,000 compounds, 0.3% hits | AID 1224865; in the data active means activity change above about 30%, passing the limit was not always enough;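 further: controls were the assay level and a saturating level of protein; the project sought stronger binding though the title names inhibitors; some compounds called inactive have numbers as strong as hits; positive values seem to mean higher polarization but the record does not say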
Calb FLC: C. albicans growth modulation with fluconazole | 300,000 compounds, 0.57% hits | AID 1979 | growth inhibition, % (concentration not given with the values) | C. albicans CaCi-2 (fluconazole-resistant clinical isolate) + fluconazole, Alamar Blue growth, 48 h;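 active means most replicates above 75%; inconclusive means exactly half above 75%; inactive means most below 75%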;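 further: all wells also contain fluconazole at 8 µg/ml as a sub-toxic cotreatment; 0% = median of DMSO wells and 100% = median of geldanamycin control wells; wells of about 8 µL received 7.5 nL stock; the first replicate is given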
LANA-H2A inh: blocks KSHV LANA binding to histone H2A/H2B; cell-free LANA-H2A/H2B peptide, fluorescence polarization; inhibition, % (test concentration not listed); 320,000 compounds, 0.6% hits; AID 2629; in the data active means inhibition mostly above about 10%, no sharp cut-off; inactive means mostly below about 6.7%;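 further: stock transfer was 7.5 nL into about 10 µL; 0% = median of vehicle wells and 100% = median of positive control wells; one replicate is shown; the record names a cut of 25% in any replicate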
* marks the source's active call; other numbers are inactive results; i = inactive; ? = inconclusive; . = not tested or not shown; & = joins results of further samples. An unsorted share of the library; 6.3% or so of the library scored in one or more.

item	canonical_smiles	B2AR ag	ALR inh	Vif A3G	RanGTP-Impb inh	HNF4A DNA FP	Calb FLC	LANA-H2A inh
1	Cc1ccccc1Cn1ccc(-c2ccc(Cl)cc2)c(C#N)c1=O	-1	-2	5%	-2.1	-0.6	-7	3.5
2	COc1ccc(C(=O)NC(=S)NCCO)cc1Br	1	-2	31%	5.1	2.4	-4	-5.6
3	COCCNc1nc2c(c(=O)[nH]c(=O)n2C)n1CCCc1ccccc1	3	.	-1%	3.8	1.3	-6	-3.5
4	O=C1N=C(N2CCc3ccccc3C2)S/C1=C\c1cccc(O)c1	-2	51	.	0.4	-3.1	-7	-2.3
5	CCN1CCN(c2ccc(S(=O)(=O)N3CCCCC3)cc2NC(=O)c2ccc([N+](=O)[O-])s2)CC1	28	-34	8%	7.0	1.2	-11	4.1
6	COc1ccc(C(=O)NCC(=O)OCC(=O)N2CC(C)CC(C)C2)cc1 (centres undefined)	-2	0	1%	2.5	0.3	-8	0.6
7	Cc1cc(-c2n[nH]c(=S)n2Cc2ccco2)n(C)n1	4	-5	2%	-2.5	-1.1	-9	-0.8
8	CCN(CC)S(=O)(=O)c1cccc(N2CC(O)=C(c3ccccc3)C2=N)c1	-6	9	0%	-0.4	-0.8	-9	-3.2
9	CCc1nonc1NC(=O)c1oc2ccc(C)cc2c1C	-2	-8	22%	2.8	-2.5	1	1.1
10	O=C(c1cccc(Cl)c1)N1CCC(N2CCC(C(=O)N3CCOCC3)CC2)CC1	0	-10	-8%	-0.6	8.6	26	1.8
11	CC(=NNS(=O)(=O)c1cccc([N+](=O)[O-])c1)c1ccc(-n2ccnc2)cc1	-14	11	.	.	0.9	.	3.9
12	Cc1ccccc1-c1cccc([C@@H]2C[C@H]3[C@H](CON3C)CN2C)c1	0	.	2%	.	-2.5	.	.
13	CCN(CC)CC(=O)Nc1ccc2c(c1)N(C(=O)CN(CC)CC)c1ccccc1CC2	16	-12	5%	3.8	-1.4	9	-1.4
14	O=C(NC1CCCCCC1)C1c2ccccc2C(=O)N1Cc1ccco1 (centres undefined)	2	72	0%	2.3	0.8	-2	6.3
15	COc1ccc(-n2nc(C(=O)NCC(=O)NC(C)C)c3ccccc3c2=O)c(OC)c1	-10	.	-6%	1.7	-1.9	6	5.7
16	CC(C(=O)NCCc1ccc(Cl)cc1)n1c(=O)c2cccn2c2cccnc21 (centres undefined)	-11	-2	.	-0.4	-1.6	5	-7.9
17	CCCCCCCCCC(=O)NNC(=O)c1c(O)c2ccccc2n(CCC)c1=O	10	-8	15%	-1.5	-2.9	6	8.3
18	CNc1ccc(Br)cc(C(=O)/C=C/c2ccc3c(c2)OCO3)c1=O	16	1	22µM*	-0.4	-9.3	5	5.3
19	O=C(CN1C(=O)NC2(CCCCCC2)C1=O)N1CCN(S(=O)(=O)c2ccc(Cl)cc2)CC1	-5	4	3%	-1.1	3.8	9	-0.4
20	CCOC(=O)CC1C(=O)NCCN1S(=O)(=O)c1ccccc1Cl (centres undefined)	1	.	?	8.6	1.7	-2	1.8
21	Cc1cc(C)c(C(=O)/C=C/C=C/c2ccccc2)c(=O)[nH]1	4	-16	5%	-1.2	-2.4	6	0.0
22	CN(c1ccccc1)C(c1ccc(F)cc1)c1nnnn1CC1CCCO1 (centres undefined)	-3	-3	0%&-11%	3.7	3.4	-14	-1.8
23	CC(=O)CC1(O)C(=O)N(CN2CCN(c3ccccc3)CC2)c2ccccc21 (centres undefined)	-1	16	-2%	-2.0	-3.8	-11	-2.0
24	CCCCn1nnnc1SCC(=O)N1CCN(C(=O)c2ccco2)CC1	-4	4	-7%	-3.1	-0.4	0	-2.3
25	Cc1noc(C)c1CSc1nnc2n(-c3ccccc3)c(=O)c3ccccc3n12	-5	0	.	-1.8	1.7	0	21*
26	CCc1ccc(-c2nc(CN3CCCC(C(=O)O)C3)c(C)o2)cc1 (centres undefined)	8	-2	-1%	-1.3	0.6	-4	-1.6
27	CC(Nc1ccc(Cl)cc1)C(=O)NN (centres undefined)	4	9	2%	-1.0	-1.8	6	-5.1
28	CCN1CCN(Cc2ccc(NC(=O)c3ccc(C)c(NC(=O)c4c[nH]c5cc(C(F)(F)F)ccc5c4=O)c3)cc2C(F)(F)F)CC1	41	-5	-4%&9%	-0.1	55*	12	-4.1
29	O=C1N[C@@H](c2ccccc2)COC(=O)[C@H](Cc2ccc(F)cc2)CC/C=C/C[C@H]1CC(=O)N(CCO)Cc1ccccc1	8	-1	4%	.	5.9	.	.
30	O=C(O)c1ccccc1C(=O)c1cccc2c(F)cccc12	0	.	-19%	.	-2.1	.	.
31	COc1cc(/C=C2/C(=O)NN(c3ccc(C)c(Cl)c3)C2=O)cc([N+](=O)[O-])c1O	9	99*	7%	-3.8	-12	-14	-4.1
32	COC(=O)C1=C(C)N(CC2CC2)C(=NCCN2CCOCC2)N[C@H]1c1ccccc1	-2	-2	.	?	2.9	-14	-3.4
33	CCC1Oc2ccccc2N(CC(=O)NCCCN2CCN(c3ccc(OC)cc3)CC2)C1=O (centres undefined)	-11	17	-11%	-2.0	0.8	-20	-2.8
34	CCSc1nnc(NC(=O)CSc2nc3c(cc2C#N)CCCC3)s1	-15	2	-2%	2.4	7.9	23	-6.5
35	COc1ccc(-c2nn3c(C4CCCCC4)nnc3s2)cc1OC	10	-3	-5%	2.5	0.6	19	15
36	COc1ccc(C(=O)Nc2ccc(C3CC3(Cl)Cl)cc2)cc1 (centres undefined)	4	4	6%	-0.5	-1.3	-1	4.8
37	CC(C)(C)c1ccc(OCC(=O)Nc2ccncc2)c(Br)c1	-3	.	2%	2.0	2.9	15	1.5
38	O=C(NCC(=O)N1CCN(c2ccccc2)CC1)c1ccc(Br)o1	-8	30	.	1.3	-4.1	-6	0.7
39	CCCOC(=O)c1ccc(NC(=O)c2cc(OC)c(OC)c(OC)c2Br)cc1	6	-8	2%	-0.2	6.4	1	-0.2
40	CC(=O)Nc1ccc(CN2CCc3c([nH]c4ccccc34)C2C(C)(C)C)cc1 (centres undefined)	3	.	.	?	-0.4	1	-4.6
41	CCCS(=O)(=O)N1CCN(C(=O)COc2ccc(-c3ccccc3)cc2)CC1	2	1	16%	3.5	-3.0	10	1.3
42	N#Cc1ccc(C(=O)Nc2cccc(S(=O)(=O)NC3=NCCC3)c2)cc1	9	-1	.	.	0.3	.	-1.1
43	Cc1cc[n+](-c2nc3ccccc3nc2C(=C=[N-])C#N)cc1	13	-2	11%	?	26	1	2.9
44	O=C(c1cc([N+](=O)[O-])cc([N+](=O)[O-])c1)N1CCN(C(=O)c2ccco2)CC1	-4	-18	12%	1.6	-0.1	-13	-1.4
45	COc1ccccc1CNC(=O)c1cccc(S(=O)(=O)N2CCCC2)c1	-1	.	1%	.	-0.3	.	.
46	Cn1c(=O)c2cc(S(=O)(=O)NCCC(=O)Nc3ccc(F)cc3F)ccc2n(C)c1=O	-5	38	.	?	-0.1	11	-6.1
47	Cc1ccc(-n2ncc3c2CCCC3NC(=O)CCCN2CCCC2=O)cc1C (centres undefined)	-4	3	1%	0.5	0.4	1	-3.6
48	O=C(CC1C(=O)NCCN1C(=O)Nc1ccccc1)Nc1cccc(C(F)(F)F)c1 (centres undefined)	7	-12	2%	-0.1	-3.0	?	4.2
49	COc1cccc(C(=O)Nc2nc3ccccc3s2)c1	3	3	31%	3.4	-0.7	-11	6.4
50	Cc1cc(N/N=C/c2ccc3c(c2)OCO3)nc2ccccc12	8	19	-2%	0.1	-1.7	-8	0.5

Remaining list, next part:
item	canonical_smiles	B2AR ag	ALR inh	Vif A3G	RanGTP-Impb inh	HNF4A DNA FP	Calb FLC	LANA-H2A inh
51	CCN(CC)CCNC(=O)CNC(=O)c1nn(-c2ccc(OC)cc2OC)c(=O)c2ccccc12	-7	.	5%	4.5	3.4	-5	-0.9
52	COc1cc(-c2noc(CCCC(=O)NC3CCCCC3)n2)cc(OC)c1OC	28	.	1%	1.0	1.7	-2	.
53	COc1ccccc1CNC(=O)c1ccc(CS(=O)(=O)c2ccccc2C)o1	6	-10	.	3.0	6.0	-4	-0.4
54	O=C(c1csc(Nc2cccc3ccccc23)n1)N1CCCC1	-8	-1	26%	2.3	-0.5	-6	2.6
55	Cc1onc(-c2ccccc2Cl)c1C(=O)N(C)Cc1ccccc1	-1	-4	-11%	1.6	3.9	-4	-4.6
56	O=C(CCn1c2c(c3ccccc31)CCCC2)NNC(=O)c1ccc(Cl)c([N+](=O)[O-])c1	9	-22	.	-4.9	-0.8	2	0.3
57	OC1NC(=S)N(c2ccccc2)C1O (centres undefined)	0	1	3%	-3.3	0.5	-2	-0.5
58	COc1ccc(N2CCN(C(=O)c3cccc(S(=O)(=O)N4CCc5ccccc54)c3)CC2)cc1	6	8	0%	.	1.0	.	5.9
59	CCn1nnnc1NCc1cccc(Cl)c1	4	-3	-5%	-3.7	-2.4	-2	-0.6
60	O=C(CCc1nnc2ccc(NCCCN3CCCC3=O)nn12)NCc1ccccc1Cl	6	-4	.	1.5	1.1	-5	2.5
61	CCOCCCNC(=S)N1CCC(C(=O)c2ccc3c(c2)OCCO3)CC1	-7	-17	-6%	0.4	0.6	14	0.5
62	CC(=O)Nc1ccc(NC(=O)CN(c2ccc(C34CC5CC(CC(C5)C3)C4)cc2)S(C)(=O)=O)cc1	-9	-4	-9%	-1.3	-0.7	-10	2.7
63	OCC1(Cc2ccc(F)cc2)CCCN(Cc2ccc(F)cc2Cl)C1 (centres undefined)	1	.	-2%	7.3	2.8	-7	-6.6
64	COc1cccc(C2/C(=C(/O)c3ccccc3)C(=O)C(=O)N2CCCC(=O)O)c1 (centres undefined)	4	.	0%	.	-0.2	.	.
65	O=C(OCC(=O)c1cccc2ccccc12)c1ccc(CO)cc1	4	-17	.	-0.7	7.3	7	1.2
66	CN(Cc1ccccc1)C1CCNCC1	-1	.	-2%	6.0	-1.2	-3	3.2
67	Cn1c(=O)c2c(nc(Br)n2CCSc2nc3ccccc3o2)n(C)c1=O	-6	-2	3%	.	-1.8	.	-2.1
68	COc1ccc(NC(C)(C)c2nnnn2-c2c(C)cccc2C)cc1	10	.	3%	3.7	0.4	12	1.0
69	COc1ccc(/C(N)=N/OC(=O)Cc2ccccc2)cc1	-5	6	-7%	.	-1.6	?	-0.2
70	Cc1cc2c(c(=O)o1)C1(C(=O)N(CC(=O)O)c3ccccc31)C(C#N)=C(N)O2 (centres undefined)	6	-17	27%	0.4	3.1	-13	-0.1
71	CCOC(=O)N1CCN(C(=O)COc2cccc3c2CCN(Cc2cccc(C)c2)C3=O)CC1	4	-10	.	-0.8	-4.6	-2	0.3
72	Cc1ccsc1C(=O)Nc1cc(C(C)(C)C)nn1-c1ccccc1	-11	-5	-2%	-5.4	-0.7	-18	2.3
73	O=C(CCC(=O)Nc1ccccc1)N/N=C/c1ccncc1	-1	-3	.	0.9	3.3	-13	2.7
74	O=C(NCc1nnc(SCC(=O)N2CCCC2)o1)c1ccccc1	-7	-22	?	-2.7	1.7	-8	3.7
75	CC(=O)CC(C)=NCCN=C(C)CC(C)=O	-7	5	-4%	11	-1.3	3	2.8
76	O=C(Nc1ccccc1F)Nc1ccccc1N1CCCCC1	0	62	.	-1.4	1.3	5	-0.1
77	COc1ccccc1/C=N/NC(=O)CCSc1ccccc1	-5	-33	.	-2.7	3.9	-37	9.8
78	O=C(Nc1ccc2c(c1)OCO2)C1CC1	6	-1	-9%	.	-1.6	.	i
